Assay outcomes from PubChem.
Rango complex inh: qHTS Assay for Inhibitors of Rango (Ran-regulated importin-beta cargo) - Importin beta complex formation; Rango CFP/YFP FRET sensor + importin beta, 45 min; 340,000 tested, 0.031% active; Potency, µM (highest dose often 92.2 µM), inactives show top-dose inhibition of complex formation; Importin subunit beta-1 (Homo sapiens), Q14974; AID 540263, 2011; active = rising FRET ratio curve, often small or poorly fitted; inconclusive = mostly compound fluorescence or quenching in the first reads; inactive = flat curves in all reads;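 note: potency is the fitted concentration of half-maximal effect; 0% = DMSO wells and 100% = buffer wells lacking importin beta; nearly all actives have a fitted effect of over 15% in size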
Target sequence (Q14974 whole entry, looked up): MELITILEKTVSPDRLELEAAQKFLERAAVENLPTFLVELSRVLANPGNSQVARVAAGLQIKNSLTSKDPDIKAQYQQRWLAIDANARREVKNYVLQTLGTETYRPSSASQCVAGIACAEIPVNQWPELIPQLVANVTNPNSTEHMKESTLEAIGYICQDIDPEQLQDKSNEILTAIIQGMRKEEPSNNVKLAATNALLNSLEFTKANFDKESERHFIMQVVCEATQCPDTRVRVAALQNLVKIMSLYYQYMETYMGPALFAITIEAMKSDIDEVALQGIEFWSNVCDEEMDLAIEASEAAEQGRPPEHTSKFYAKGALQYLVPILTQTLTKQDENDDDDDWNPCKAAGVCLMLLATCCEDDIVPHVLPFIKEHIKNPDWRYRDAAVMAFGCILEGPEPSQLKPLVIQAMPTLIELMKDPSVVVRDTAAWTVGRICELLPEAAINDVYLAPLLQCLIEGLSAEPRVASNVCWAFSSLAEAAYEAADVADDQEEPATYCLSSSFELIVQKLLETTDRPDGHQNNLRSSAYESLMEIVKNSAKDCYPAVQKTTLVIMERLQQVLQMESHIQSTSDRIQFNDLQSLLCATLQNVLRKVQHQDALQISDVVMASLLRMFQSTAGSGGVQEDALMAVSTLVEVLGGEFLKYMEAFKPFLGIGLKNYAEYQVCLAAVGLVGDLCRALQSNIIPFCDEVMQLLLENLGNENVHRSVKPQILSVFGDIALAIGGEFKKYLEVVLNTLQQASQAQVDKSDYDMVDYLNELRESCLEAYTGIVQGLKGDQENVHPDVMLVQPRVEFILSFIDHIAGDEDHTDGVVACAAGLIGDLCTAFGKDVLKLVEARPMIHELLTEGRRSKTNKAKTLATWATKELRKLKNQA
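Inhibition scored from the CFP 486 nm/YFP 530 nm FRET ratio 45 min after adding 0.125 microM importin beta to 50 nM Rango biosensor preincubated 5 min with compound (room temperature, PBS with DTT, Tween-20, BSA). No-importin wells as positive control.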
miR-21 reporter: qHTS Assay for Modulators of miRNAs and/orActivators of miR-21; HeLa miR-21 FLuc reporter, luciferase, 48 h; Potency, µM (top dose mostly 38.3 µM), inactives show at the highest dose reporter change, positive = more light; 340,000 tested, under 10 active; active = well fitted rising curve with a large enough effect; inconclusive = small, poorly fitted or top-dose-only effect; inactive = no such curve, though single readings can be large or run the other way;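 note: % of control where 0% means no effect; miR-21 action dims this reporter so a rising signal means less miR-21 action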
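Compounds were titrated across several concentrations (up to approximately 40 uM) and incubated 48 hours with HeLa miR-21-FLuc reporter cells (miR-21 target sequence downstream of FLuc, endogenous miR-21). Readout was firefly luciferase luminescence after lytic detection reagent.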
GLA inh pH 4.5: qHTS Assay for Inhibitors of Human alpha-Galactosidase at pH 4.5 | purified enzyme, 4-MU-alpha-Gal fluorescence, pH 4.5 | activity change, negative = inhibition, % at 105 µM | 230,000 tested, under 10 active | AID 1467, 2008; inconclusive = small, poorly fitted or top-dose-only inhibition, or a rising curve; inactive = flat fitted curve, though single readings scatter; no compound was filed as active;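 note: 0% = full activity with enzyme and -100% = basal without enzyme; dose as in the result columns while the protocol names 77 µM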
Rango release inh: qHTS Assay for Inhibitors of RanGTP induced Rango (Ran-regulated importin-beta cargo) - Importin beta complex dissociation | Snurportin-1 (Homo sapiens) + GTP-binding nuclear protein Ran (Homo sapiens) + Importin … | Biochemical FRET Rango-importin beta, RanGTP-induced dissociation | Potency, µM (titrated, usually from 46.1 µM), for inactives: at the top dose activity change, negative = inhibition | 340,000 tested, 0.071% active; active means falling FRET ratio curve, often poorly fitted, with flat reads before Ran was added; inconclusive means other falling curves, or compound fluorescence or quenching; inactive means flat or rising ratio curve;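 note: potency is the fitted concentration of half-maximal effect; % of control where 0% means no effect; nearly all actives have a fitted effect of over 45% in size; -100% = wells without RanGTP and RCC1; the record marks most hits as doubtful in a second field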
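Recombinant Rango FRET biosensor (EYFP–snurportin 1 IBB–cerulean CFP10) at 0.1 uM premixed with 0.25 uM importin beta in PBS, 1 mM DTT, 0.02% Tween-20, 0.1% BSA. Compound added 5 min; RanGTP-RCC1 (0.6 uM Ran, 2 mM GTP, 0.2 uM RCC1) then triggers release, read at 45 min.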
An asterisk follows results filed as active; ? = inconclusive; · = no result given; & = joins results of further samples. An excerpt, so the mix of outcomes need not match the whole.

Rango complex inh,miR-21 reporter,GLA inh pH 4.5,Rango release inh,molecule
?,-8%,·,-2%,CC(C)(C)c1ccc(C2/C(=C(\O)c3ccc4c(c3)OCCO4)C(=O)C(=O)N2CCCN2CCOCC2)cc1 (stereo not drawn)
-0.9%,-33%,-1,-4%,Cc1ccc(S(=O)(=O)N2CCCCC2)cc1NC(=O)c1ccc2ccccc2n1
2.2%,-2%,-12,0%,O=C(Oc1c(Br)cc(Br)c2cccnc12)N1CCCCC1
0.7%,·,·,-5%,CCN(CC(=O)Nc1c(F)cccc1F)C(=O)c1ccc(COc2ccccc2)o1
10.0%,-2%,-21,-8%,COc1ccc(C)cc1N(CC(=O)Nc1cccc(N(C)S(C)(=O)=O)c1)S(C)(=O)=O
-1.2%,-8%,·,19%,CC(=O)NN1C(=O)c2ccccc2NC1c1cccc([N+](=O)[O-])c1 (stereo not drawn)
?,10%,2,-3%,CCOc1cc(/C=N/NS(=O)(=O)c2ccccc2)ccc1OS(=O)(=O)c1ccc(C)cc1
-0.1%,0%,8,-10%,Cc1nc2scc(-c3ccc(Cl)cc3)c2c(=O)n1N
1.8%,-14%,-2,1%,O=C(Nc1ccccc1)C1CCCN1/C=C/C(=O)C(F)(F)F (stereo not drawn)
0.1%,-4%,-16,16%,CSc1ccc(/C=C(\C#N)C(=O)NC2CCCCC2C)cc1 (stereo not drawn)
1.3%,·,·,19%,Cc1occc1-c1nnc(SCC(=O)Nc2c(F)cccc2F)n1C
2.5%,-1%&-1%,-2,-7%,COCCNC(=O)CSc1nc2cc3c(cc2c(=O)n1CCCC(=O)NCc1ccc(OC)cc1)OCO3
-1.2%,-3%,-7,-3%,CCOC(=O)N1CCN(CC(=O)c2c(C)[nH]c3ccccc23)CC1
-4.5%,·,·,21%,Cc1cn(C2OC(CC(=O)Oc3ccccc3)C(O)C2O)c(=O)[nH]c1=O (stereo not drawn)
8.7%,·,·,0%,CN(C(=O)c1ccccc1C(=O)OCC(=O)Nc1ccccc1)c1ccccc1
3.2%,-2%,·,38%,COc1ccc(C(=O)N2N=C(c3ccc(NS(C)(=O)=O)cc3)CC2c2cccs2)cc1 (stereo not drawn)
1.7%,2%,-3,15%,c1ccc(Oc2cccc3cccnc23)nc1
7.6%,-5%,3,-4%,COc1ccc(CNC(=O)C(=O)NCC2CCCO2)cc1 (stereo not drawn)
?,-4%,19,?,Nc1c(NCc2ccccc2)c(=O)[nH]c(=O)n1Cc1ccccc1
1.6%,0%,20,1%,CCOc1cc(/C=N/NC(=O)c2ccncc2)cc(Cl)c1OS(C)(=O)=O
1.5%,-52%,·,3%,Cc1[nH]n(C(N)=S)c(=O)c1N=Nc1ccc(Br)cc1
-3.3%,-62%,-6,-3%,Cc1ccc(NC(=O)c2ccoc2C)cc1C
0.9%,-1%,2,6%,O=C(CCC(=O)c1cccs1)NCc1ccncc1
1.9%,·,·,-7%,O=C(COC(=O)/C=C/c1cc(Br)ccc1F)Nc1ccc2[nH]c(=O)[nH]c2c1
4.4%,2%,-2,4%,CCOC(=O)c1cn(Cc2c(C)c(C)c(C)c(C)c2C)nn1
?,-9%,1,?,COc1cc([N+](=O)[O-])cc(/C=N/NC(=O)c2cncc(Br)c2)c1O
-0.3%,-16%,-2,-19%,CSCc1nc2scc(-c3ccccc3)c2c(=O)[nH]1
0.0%,0%,·,2%,NCCNC(=O)c1c(O)c2cccc3c2n(c1=O)CCC3
0.3%,·,·,6%,O=C(NCCC(=O)N1CCN(c2ccccc2O)CC1)c1ccc(Br)cc1
-0.9%,-2%,-2,0%,COc1ccc(NC(=S)N(Cc2cccnc2)Cc2ccco2)cc1
0.2%,-5%,-3,-11%,CCN1CCN(C(=O)c2cc3nc(-c4ccccc4)cc(C(F)(F)F)n3n2)CC1
-2.1%,-11%,1,16%,O=C(N/N=C/c1ccc2c(c1)OCO2)c1cc(-c2ccccc2)nc2ccccc12
3.3%,3%,·,5%,CN(CC(=O)Nc1ccc(Cl)cc1)C(=O)CCc1c[nH]c2ccccc12
?,-12%,2,-22%,Cc1cccc(N2CCN(C(=O)Cc3c(C(=O)O)[nH]c4ccc(Cl)cc34)CC2)c1C
4.1%,0%,-3,-4%,Clc1ccc(-c2csc3ncnc(N4CCc5ccccc5C4)c23)cc1
-2.6%,7%,·,-9%,CC(C)n1nccc1N(Cc1ccc(Br)cc1)S(=O)(=O)c1ccccc1
5.4%&3.9%,10%,3,25%&9%,COc1cc(N=c2ssnc2Cl)c(OC)cc1Cl
-1.2%,·,·,0%,C[C@H]1C=C(C(=O)NCc2nc3ccccc3[nH]2)O[C@@H](OCCCCO)C1
7.5%,·,·,14%,O=C(Cn1cc(C(F)(F)F)ccc1=O)N1CCc2ccccc2C1
0.0%,1%,·,-20%,COc1ccc(S(=O)(=O)N2CCC(C(=O)N[C@H](C(=O)N3CCCC3)C(C)C)CC2)cc1
-2.5%,1%,-2,17%,CCCCNc1nc(CC(C)=O)ns1
-4.4%,-19%,·,1%,O=C(NCCO)c1ccc2nc(Cc3cccc(Cl)c3)oc2c1
0.2%,-5%,2,-8%,Cc1nc(CCNC(=O)COc2ccccc2)cs1
-0.7%,-18%,15,1%,CCOC(=O)c1sc2nc(C(C)C)c3c(c2c1N)CCC3
3.0%,23%,·,-7%,Cc1ccc(C)c(CN2CCC(CNC(=O)Nc3ccc(F)c(Cl)c3)CC2)c1
0.2%,7%,?,3%,COC(=O)c1c(C)c(C)nc(N)c1C#N
-0.6%,-3%,·,-9%,CC(=O)N(Cc1ccc(Cl)cc1)c1cnccn1
-0.3%,-6%,7,10%,CCCNC(=O)N1CCC(C(=O)c2ccc(F)cc2)CC1
?,-6%,·,0%,O=C(CCCCC(=O)Nc1ccccc1)Nc1ccccc1
-1.2%,-5%,1,1%,CN(Cc1ccccc1)C(=O)COC(=O)c1cc(Cl)nc(Cl)c1

New compounds follow.
Rango complex inh,miR-21 reporter,GLA inh pH 4.5,Rango release inh,molecule
-0.3%,-4%,-1,0%,Cc1cc(SCC(=O)Nc2ccccc2C)nc(C)n1
2.2%,-8%,-6,12%,O=[N+]([O-])c1cccc(S(=O)(=O)NCCCN2CCOCC2)c1
7.5%,·,·,0%,O=C(NCCS(=O)(=O)N1CCc2ccccc2C1)c1ccccc1
3.8%,·,·,18%,O=C(Nc1ccccn1)C1CCN(S(=O)(=O)c2ccc3c(c2)OCCO3)CC1
-6.5%,·,·,-12%,O=C(OCC(=O)N1CCN(C(=O)c2ccco2)CC1)c1cccc(F)c1
?,-52%,-9,-1%,CCCOc1ccc(OCCSc2ncccn2)cc1
3.9%,0%,·,5%,COC(=O)c1ccc([C@H]2CC(=O)O2)cc1
-0.1%,-1%,-1,-19%,CC(NC(=O)c1ccco1)C(c1cccs1)N1CCOCC1 (stereo not drawn)
-1.6%,-1%,·,7%,Cc1nc2ccc([N+](=O)[O-])cc2c(=O)n1Cc1ccc(F)cc1
-3.5%,0%,·,-7%,O=C(NCc1ccco1)C1CCN(S(=O)(=O)c2cccc([N+](=O)[O-])c2)CC1
1.1%,-1%,-21,-3%,COc1ccc2cc(Br)ccc2c1CC(=O)NCC1CCCO1 (stereo not drawn)
4.5%,-5%,·,-1%,Cc1oc(-c2cccc(Cl)c2)nc1CN1CCC(C(=O)NCCCN2CC(C)CC(C)C2)CC1 (stereo not drawn)
-1.7%,-8%,1,-17%,COc1ccc(/C=C/C(=O)N2CCN(S(=O)(=O)/C=C/c3ccccc3)CC2)cc1OC
-2.4%,15%,-2,7%,CCCOc1c(OC)cccc1C1CC(=O)Nc2cc3c(cc21)OCCO3 (stereo not drawn)
?,-10%,·,?,Cc1ccc(-n2nc3ccc(N)cc3n2)cc1Cl
-1.2%,-2%,0,6%,Cc1nnc(NC(=O)CSc2nc(C3CCCCC3)nc3ccccc23)s1
?,-1%,13,2%,Cc1cc(C)c2c(=O)[nH]c(SCC(=O)c3ccc(C)c(C)c3)nc2n1
-3.6%,-69%,2,3%,Cc1cc(C)n2ncc(/C(N)=N/OC(=O)c3ccccc3F)c2n1
2.8%,-43%,5,0%,Cc1ccc(C(=O)NNC(=O)c2ccco2)cc1
1.3%,-42%,-3,0%,CCOC(=O)Nc1ccc2c(c1)OCO2
-1.8%,-8%,·,-19%,CCOC(=O)c1ccc(NC(=S)NC(=O)c2cncc(Br)c2)cc1
-0.3%,7%,·,-12%,COc1ccc(NC(=O)c2cccc(NS(=O)(=O)c3ccccc3)c2)cc1
-1.9%,·,·,-8%,C[C@H](CO)N1C[C@H](C)[C@@H](CN(C)Cc2ccncc2)Oc2c(NS(=O)(=O)c3ccc(F)cc3)cccc2C1=O
0.8%,5%,-5,1%,COc1ccc(C(CNC(=O)c2ccc(S(=O)(=O)N(C)C)cc2)N2CCCCC2)cc1 (stereo not drawn)
-2.4%,-33%,10,0%,c1ccc(-c2noc(CN3CCc4sccc4C3)n2)cc1
-3.6%,·,·,6%,Cc1cnn(C(=O)Cn2nc(C(F)F)c(Br)c2C)c1
?,-23%,-12,?,CC/C(=N/Nc1cccc(C)c1)c1cnnc(SC)n1
8.2%,·,·,?,O=C(C[C@@H]1C/C=C\C[C@H](NC(=O)OCC2c3ccccc3-c3ccccc32)C(=O)OC[C@H]2CCCN2C1=O)NCCO
2.8%,-1%,-16,2%,COc1cc(/C=C(\C#N)C(=O)N2CCOCC2)cc(Br)c1O
?,0%&-1%,14,-9%,Cc1ccc(-n2c3c(c(=O)[nH]c2=O)C(NS(=O)(=O)c2ccc(C)cc2)(C(F)(F)F)C(=O)N3)cc1 (stereo not drawn)

Reprinted at random: seven compounds from above, in no set order.
Rango complex inh,miR-21 reporter,GLA inh pH 4.5,Rango release inh,molecule
-1.9%,·,·,-8%,C[C@H](CO)N1C[C@H](C)[C@@H](CN(C)Cc2ccncc2)Oc2c(NS(=O)(=O)c3ccc(F)cc3)cccc2C1=O
-0.3%,7%,·,-12%,COc1ccc(NC(=O)c2cccc(NS(=O)(=O)c3ccccc3)c2)cc1
0.8%,5%,-5,1%,COc1ccc(C(CNC(=O)c2ccc(S(=O)(=O)N(C)C)cc2)N2CCCCC2)cc1 (stereo not drawn)
-1.8%,-8%,·,-19%,CCOC(=O)c1ccc(NC(=S)NC(=O)c2cncc(Br)c2)cc1
2.8%,-1%,-16,2%,COc1cc(/C=C(\C#N)C(=O)N2CCOCC2)cc(Br)c1O
-2.4%,-33%,10,0%,c1ccc(-c2noc(CN3CCc4sccc4C3)n2)cc1
?,0%&-1%,14,-9%,Cc1ccc(-n2c3c(c(=O)[nH]c2=O)C(NS(=O)(=O)c2ccc(C)cc2)(C(F)(F)F)C(=O)N3)cc1 (stereo not drawn)

(more compounds)
Rango complex inh,miR-21 reporter,GLA inh pH 4.5,Rango release inh,molecule
-0.3%,9%,4,2%,COc1cc(OC)cc(C(=O)Nc2ccc(-c3nc4ccccc4o3)cc2)c1
4.2%,-17%,4,0%,CC(Oc1ccccc1F)C(=O)NN (stereo not drawn)
8.9%,15%,·,16%,Cn1c(=O)n(C)c2cc(S(=O)(=O)Nc3ccc(F)cc3)ccc21
?,-2%,·,-16%,CCN(C(=O)C1CCCO1)c1ccccc1 (stereo not drawn)
-0.6%,-11%,8,0%,C=CCn1c(-c2cccn(Cc3ccc(Cl)cc3Cl)c2=O)n[nH]c1=S
1.0%,·,·,-6%,Cc1ccc(NC(=O)CCS(=O)(=O)c2ccccc2)cc1S(=O)(=O)N1CCCCCC1
2.8%,-1%,-12,23%,C=CCNC(=O)CSc1nc2cc(C(=O)OCC)ccc2n1CC
0.4%,-2%,-5,6%,Cc1ccc(NC(=S)N(Cc2ccccc2)Cc2cccs2)c(C)c1
0.0%,15%,-10,-19%,COc1ccc(NC(=O)c2c(Nc3ccccc3)sc(C(=O)c3ccc(F)cc3)c2N)cc1
-1.5%,0%,1,8%,CCCCN(CC)CCNc1c(NC2CCN(C(=O)OCC)CC2)c(=O)c1=O
-0.1%,-12%,·,45%,Cc1cccc(OCCC(=O)Nc2ccccc2C(N)=O)c1
